Assay outcomes (PubChem BioAssay)
RVFV N-RNA inh – inhibitors of RVFV nucleoprotein–RNA binding, primary screen, biochemical, fluorescence polarization; % bound, % (concentration not given with the values); RVFV N-RNA binding; stronger effect = lower value; P21700; actives 0.1% (n = 20,000);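 active = between 0 and 58% in either replicate with normal brightness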;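 also: 100 nL library stock added to about 12 µL; 100% = protein and probe without compound and 0% = probe alone; numbers are from one replicate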
Target sequence (P21700 whole entry, looked up): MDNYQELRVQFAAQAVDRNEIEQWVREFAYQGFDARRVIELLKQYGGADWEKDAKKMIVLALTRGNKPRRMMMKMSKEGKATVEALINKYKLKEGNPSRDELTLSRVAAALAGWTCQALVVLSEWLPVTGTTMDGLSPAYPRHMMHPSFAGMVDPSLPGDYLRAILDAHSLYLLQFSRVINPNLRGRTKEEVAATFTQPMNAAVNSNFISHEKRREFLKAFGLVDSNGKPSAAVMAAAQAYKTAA
* hit, by the source's call; & = joins results of further samples. The list is partial; rates above refer to the full screens.

structure | RVFV N-RNA inh
CSC1=NC=C(C#N)C2=NC(C)(c3ccc(Cl)c(Cl)c3)NN12 (centres undefined) | 93
CCN(CC)S(=O)(=O)c1ccc2c(c1)oc(=O)c1cc(S(=O)(=O)N(CC)CC)ccc12 | 93
CCN1C(=O)c2ccc(C(=O)Nc3ccc(OC)cc3)cc2C1=O | 107
O=C(NCc1ccco1)c1ccc2c(c1)C(=O)N(Cc1ccccc1)C2=O | 104
CC(=O)OC1=C(C)C(c2ccccc2)N(C(C)=O)C(c2ccccc2)C1C (centres undefined) | 103
COC(=O)COc1ccc(S(=O)(=O)N2CCN(c3cc(Cl)ccc3C)CC2)cc1 | 90
O=C(NCCN1CCOCC1)N(c1ccccc1)c1ccccc1 | 97
CCc1nnc(SCCSc2nnc(CC)n2N)n1N | 107
CSc1nc(CSc2ccc(C)cc2)nc(N)c1C#N | 92
CN(C)c1cc(-c2ccccc2)nc(-c2ccccc2)n1 | 92
C=C1C2(C(=O)Nc3ccccc3OC)CCC(C2)C1(C)C (centres undefined) | 91
CCOc1ccc(S(=O)(=O)Nc2ccc(S(=O)(=O)N3CCOCC3)cc2)cc1 | 89
Cc1ccccc1-c1nc(C#N)c(N2CCN(c3ccccc3)CC2)o1 | 97
COc1ccc(C2=C[N+](=O)C(C)(C)C(C)(C)N2[O-])cc1 | 93
CCc1ccc(NC2CC(=O)NC2=O)cc1 (centres undefined) | 95
O=C(O)CC(C(=O)O)c1ccc(Cl)cc1Cl (centres undefined) | 88
CC(C)C(NC(=O)c1ccc(F)cc1)C(C)C | 96
COC(=O)CSc1ccccc1C(=O)OC | 95
CCOC(=O)c1cc(=O)n(C)c2c1c(=O)oc1ccccc12 | 106
Cn1c(SCC(=O)c2ccccc2)nc2ccccc2c1=O | 90
C=CCN1C(=O)S/C(=C/c2ccc(N3CCOCC3)cc2)C1=O | 99
CCN(C(=O)CCCN1C(=O)/C(=C\c2cccs2)SC1=S)C1CCS(=O)(=O)C1 (centres undefined) | 92
Cc1onc(-c2c(F)cccc2Cl)c1C(=O)N=C(N)N1CCOCC1 | 93
Cc1ccc(C(=O)c2ccccc2C(=O)O)c(O)c1 | 74
c1nncn1/N=C1/CCCc2nonc21 | 95
C=CCN(c1ccc(C(N)=O)cc1)S(C)(=O)=O | 101
O=C1C(Cc2ccc(F)cc2)S/C(=N/N=C/c2cccnc2)N1Cc1ccco1 (centres undefined) | 105
CO/N=C1/CC(C)(C)Cc2c(C(=O)O)sc(SC)c21 | 96
COC(=O)CC1SC(=O)NC1=Nc1ccc(OC)cc1 (centres undefined) | 105
c1ccc2c3c([nH]c2c1)CNCC3 | 110
CN(C)c1cccc(C(=O)Nc2ccc(Br)cc2)c1 | 96
Cc1ccc(N2CC(NC(=O)N(C)C3CCN(C)CC3)CC2=O)cc1C (centres undefined) | 100
CC1=C/C(=N\OC(=O)Cc2ccccc2)C(C)=CC1=O | 99
N#CCN1CCC/C1=C(/C#N)C(=O)c1ccccc1 | 97
CCOc1ccc(C(O)C2CCNCC2)cc1 (centres undefined) | 98
Cc1ccc(S(=O)(=O)N/N=C2\C3CN4CCN(C3)CC2(c2ccccc2)C4)cc1 | 108
CCn1c(/C(C#N)=C(\O)CCc2ccccc2)nc2ccccc21 | 94
FC(F)(F)c1ccc(CN2CCCCCCC2)cc1 | 92
COC(=O)CNC(=O)c1ccccc1Cl | 95
Cc1ccc(NC(=O)Nc2c(C)noc2-c2ccc(C(F)(F)F)cc2)cc1 | 97
COC(=O)c1ccsc1NC(=O)C1COc2ccccc2O1 (centres undefined) | 98
Cc1ccccc1NC(=O)N(C)C1CCN(C)CC1 | 93
N#Cc1c(NCc2ccccc2)ccnc1Cl | 98
O=C(CSc1ccc2nnc(-c3ccncc3)n2n1)N1CCCC1 | 96
C#CCN1C(=O)S/C(=C/c2cc(OC)c(OCC(=O)O)cc2Br)C1=O | 93
S=C(c1c[nH]c2ccccc12)N1CCCCC1 | 92
NC(=S)N/N=C/c1c(Sc2ccc(Cl)cc2)nc2sccn12 | 97
Cc1ccc(S(=O)(=O)NC(=O)N2CCC(C)CC2)cc1 | 91
CC1=C(C(=O)Nc2ccc(F)cc2)C(c2ccc(N3CCOCC3)cc2)C2=C(CCCC2=O)N1 (centres undefined) | 94
Cc1ccc(CNC(=S)NCCCn2nccc2C)cc1 | 90
O=S(Cc1ccccc1)c1ccccc1 (centres undefined) | 95
CCCC[C@@]1(C2CCCC2)Cc2cc(OCC(=O)O)c(Cl)c(Cl)c2C1=O | 98
O=S(=O)(N=S(N1CCOCC1)N1CCOCC1)c1ccccc1 | 98
CCOC(=O)c1ccccc1NC(=O)COC | 105
COC(=O)c1ccc(S(=O)(=O)N2CCCN(c3nccc(C(F)(F)F)n3)CC2)n1C | 92
COc1ccc(Br)cc1CSCCC#N | 96
CCN1C(=O)c2cccc3c(S(=O)(=O)N4CCCCCC4)ccc1c23 | 95
O=C1Nc2ccccc2C12OCCCO2 | 96
Cn1cnc2cc(NCc3ccc(Br)cc3)ccc21 | 88
Cc1onc(-c2c(Cl)cccc2Cl)c1NC(=O)Nc1ccc(Cl)cc1 | 99

Next part
structure | RVFV N-RNA inh
Cc1cc(SCC2=NNC(=O)C2)c(Cl)cc1Cl | 90
COC(=N)c1nccnc1SCc1ccc(F)cc1 | 99
OCCOCCNc1ncnc2sc(-c3ccccc3)cc12 | 96
N[C@H](C(=O)O)[C@H](Cc1ccccc1)C(=O)O | 94
O=c1c(C=NC2CC2)c(O)n(C2CCCCC2)c(=O)n1C1CCCCC1 | 93
Cc1ccc(P(=O)(CO)c2ccc(C)cc2)cc1 | 100
Cc1ccc(Cn2c(CCCNC=O)nc3ccccc32)cc1 | 99
C=C(C)CNC(=S)N1CCNCC1 | 96
O=C(O)CCn1nc(-c2ccc(F)cc2)cc(Cc2ccccc2)c1=O | 100
c1ccc(-c2csc(N3CCN(c4ncccn4)CC3)n2)cc1 | 95
CCCCN(C)Cc1ccncc1 | 98
CC1(C)CC(NC(=O)NC23CC4CC(CC(C4)C2)C3)CC(C)(C)N1 | 90
CCc1ccc(C=C2C(=O)OC(C)(C)OC2=O)o1 | 97
Cc1ccc(-n2nnc(-c3ccc(Cl)cc3)n2)cc1 | 98
COC(=O)c1c(OC)ccc(NC=C(C#N)C#N)c1OC | 100
c1ccc(-c2cc(-c3cn4cccnc4n3)on2)cc1 | 84
COc1cc(/C=C(\C#N)C(=O)N2CCOCC2)cc(OC)c1OC | 100
O=c1[nH]c(-c2ccc3c(c2)OCO3)nc2ccccc12 | 94
C[N+](C)(C)CCOC(=O)CCC(=O)OCC[N+](C)(C)C | 98&101
COC(=O)c1cc(Cl)cc(Cl)c1O | 99
Cc1csc2nc(SCC(=O)NCc3ccccc3)[nH]c(=O)c12 | 102
COC(=O)C1CCCN1C(=O)c1ccccc1 (centres undefined) | 89
C#CCOC(=O)C1=CCCN(C)C1 | 95
Cc1ccc(OCC(=O)NC(=S)N2CCOCC2)cc1 | 97
CCOc1cccc(/C=N/n2c(C)n[nH]c2=S)c1 | 97
CCCCC[C@H](O)/C=C/[C@H]1[C@H](O)CC(=O)[C@@H]1CCCCCCC(=O)O | 96&98
CN1Cc2ccc(CN3C(=O)c4ccccc4C3=O)cc2NC1=O | 95
CCN(CC)CCn1c2c(c(SCC(=O)Nc3cc(C)on3)nc1=O)CCCC2 | 92
CN1C(=O)S/C(=C/c2ccc(-c3ccc(C(=O)O)c(Cl)c3)o2)C1=O | 93
O=C(O)CP(=O)(O)O | 91
Cc1ccc(-c2ncc(Cl)cc2-c2ccc(S(C)(=O)=O)cc2)cn1 | 113
O=C(O)CCc1ccc(-c2ccccc2)n1-c1ccccc1O | 98
COc1ccc(OC)c(Nc2nc3nonc3n3nnnc23)c1 | 94
CCCC(C)C(=O)Nc1cc(C)ccn1 (centres undefined) | 91
CC1=CCC23CC1C(=O)C=C2CC(C)(C)CC3=O (centres undefined) | 90
Cc1ccc(C)c(-c2nnc(NC(=O)c3cccc(S(C)(=O)=O)c3)o2)c1 | 85
C=CCOc1cccc(C(=O)Nc2ccccc2)c1 | 109
CCNC(=O)CC1S/C(=N\N=C\c2ccc(C)o2)NC1=O (centres undefined) | 95
Cc1coc(NC(=O)CSc2nc3c(c(C(F)(F)F)c2C#N)CC(c2ccccc2)CC3)n1 (centres undefined) | 94
COCCNC(=O)c1ccc(Cl)cc1 | 94

In another format: 4 of the compounds above
> CCCC(C)C(=O)Nc1cc(C)ccn1 (centres undefined)
  RVFV N-RNA inh = 91
> CC1=CCC23CC1C(=O)C=C2CC(C)(C)CC3=O (centres undefined)
  RVFV N-RNA inh = 90
> Cc1ccc(C)c(-c2nnc(NC(=O)c3cccc(S(C)(=O)=O)c3)o2)c1
  RVFV N-RNA inh = 85
> C=CCOc1cccc(C(=O)Nc2ccccc2)c1
  RVFV N-RNA inh = 109

More compounds follow.
structure | RVFV N-RNA inh
O=c1oc2cc(O)ccc2c2c1CCCC2 | 96
CC(N)c1cccc(Cl)c1Cl (centres undefined) | 98
CC(=O)Nc1nc(-c2ccccc2)nc2sc(C#N)c(C)c12 | 103
Cc1nnc(SCC(=O)OC2CC(C)CCC2C(C)C)[nH]c1=O (centres undefined) | 93
CCOC(=O)C(C(N)=O)C1(O)OC(c2ccccc2)=CC1=O (centres undefined) | 97
CCCCOC(=O)C1Cc2ccccc2C(=O)O1 (centres undefined) | 95
COc1ccccc1NC(=O)CC(NC1CCCCC1)C(=O)O (centres undefined) | 97
CCc1ccc(S(=O)(=O)c2cnc3ccccc3c2N2CCN(C)CC2)cc1 | 90
O=C(CCc1ccccc1)N/N=C/c1ccncc1 | 93
N#C/C(=C/c1ccccc1)c1ccc(C#N)cc1 | 96
COc1ccccc1NC(=O)Cc1nn(C)c(=O)c2ccccc12 | 91
Fc1ccc(-c2nnc(Cc3nnc(-c4ccc(F)cc4)o3)o2)cc1 | 100
O=C1C(Cl)=C(N2C(=O)CCC2=O)C(=O)c2ccccc21 | 85
O=C(OCc1ccc(Cl)cc1)c1cccs1 | 102
Cc1cccc(-n2c(N)cc(=O)nc2SCC(=O)NC2CCCCC2)c1 | 92
C=CCNC(=S)N1CCNC(=O)C1CC(=O)Nc1cc(Cl)ccc1OC (centres undefined) | 99
Nc1nc(O)c(C2=C3C(=Nc4ccccc43)C(=O)NCC2)[nH]1 | 97
Cc1c(Cl)cccc1NC(=S)NN(C)C | 93
CC(C)CCn1c(O)c(N=NC(N)=O)c2ccccc21 | 95
CC(C)(ONC(=O)Nc1ccccc1Cl)C(=O)O | 106

The final 3 records of the section above open the next one:
structure | RVFV N-RNA inh
Cc1c(Cl)cccc1NC(=S)NN(C)C | 93
CC(C)CCn1c(O)c(N=NC(N)=O)c2ccccc21 | 95
CC(C)(ONC(=O)Nc1ccccc1Cl)C(=O)O | 106
Cc1cc(=O)oc2cc(OCC(=O)N3CCOCC3)ccc12 | 92
CCNS(=O)(=O)c1cc(OC)c(Cl)cc1OC | 91
CC(=O)Nc1ccc(C(=O)CSc2nnc(-c3cccc(Br)c3)o2)cc1 | 98
COc1ccc(C(CN(C)C)C2(O)CCCCC2)cc1 (centres undefined) | 92&93&98
O=C1CN(c2ccccc2)C(=O)C1C(=O)Nc1ccccc1 (centres undefined) | 93
COC(=O)c1sccc1NC(=O)CC1C(=O)NCCN1C(=O)NS(=O)(=O)c1ccc(C)cc1 (centres undefined) | 95
COc1cccc(-c2ccc(=O)n(CC(=O)NCc3ccccc3)n2)c1 | 85
CCCCC1=NC2(CCCC2)C(=O)N1Cc1ccc(-c2ccccc2-c2nn[nH]n2)cc1 | 98
O=c1[nH]c(=O)c2ccccc2o1 | 101
CCc1ccc(-n2cnc3ccccc3c2=O)cc1 | 110
O=C(Nc1ccc(N2CCOCC2)cc1)c1ccccc1 | 87
O=C(O)c1ccc(-c2nc3ccccc3s2)cc1 | 94
O=C1NCCCCC1NS(=O)(=O)c1cc(S(=O)(=O)c2ccccc2)cs1 (centres undefined) | 93
CC1(C)CC2=[N+]([O-])CN(O)C2C(C)(C)N1O (centres undefined) | 97
C=CCNC(=S)Nc1ccc(N2CCN(c3ccc(C(F)(F)F)cn3)CC2)nc1 | 98
CNC(=S)N/N=C/c1ccc(C(C)C)cc1 | 94
O=c1[nH]c(=O)n(Cl)c(=O)n1Cl | 102
S=C=Nc1ccc(N=C=S)cc1 | 103
C#CCn1c(=NC(=O)c2ccc(N3C(=O)CCC3=O)cc2)sc2cc(Br)ccc21 | 98
COc1ccc(NC(=O)N=S2CCN(S(=O)(=O)c3ccc(Cl)cc3)CC2)cc1 | 94
O=S(=O)(c1ccc(-c2cnco2)cc1)N(Cc1ccccn1)Cc1ccccn1 | 92
CCN(Cc1ccccc1)C(=O)CS(=O)(=O)c1ccccc1 | 98
COC(=O)c1ccccc1NC(=O)Cn1c(SC)c(F)cnc1=O | 93
C#Cc1cccc(N2C(=O)CC(CC=C)C2=O)c1 (centres undefined) | 93
CC1CCN(C(=O)/C=C/c2c(F)cccc2Cl)CC1 | 98
COC(=O)C1=C(C(=O)c2ccccc2)C(c2ccccc2)n2ncnc2N1 (centres undefined) | 87
CC(C)(C)c1ccc(/C=C/C(=O)Nc2ncccn2)cc1 | 98
O=C1NCCN1CCNS(=O)(=O)c1cccc2cccnc12 | 98
COC(=O)c1ccccc1NC(=O)COc1ccc2oc(-c3ccco3)cc(=O)c2c1 | 98
Cn1c(O)c(Cc2c[nH]c3ccccc23)c(=O)n(C)c1=O | 89
OC1CCN(CC2CC=CCC2)CC1 (centres undefined) | 97
Cc1cc(C(F)(F)F)nc(Sc2nc(C)cc(C)c2C#N)n1 | 97
O=S1(=O)C=CC(Nc2cccc3ccccc23)C1 (centres undefined) | 95
COc1ccc(OCCC(=O)NCc2ccccc2)cc1 | 98
Cc1nc(SCC(=O)Nc2nccs2)[nH]c(=O)c1C | 100
